Compound activity as filed in PubChem.
KinaseGlo FLuc: counter-screen: inhibitors of Kinase-Glo firefly luciferase; Q27757; Kinase-Glo luciferase, ATP luminescence, 8 min; Potency, µM (titrated, usually from 38.3 µM), for the others: top-dose activity change, negative = inhibition, most hits filed as inhibitors; 200,000 tested, 0.28% active; note: potency is the fitted concentration of half-maximal effect; % is set by controls: 0 for no effect and ±100 for the full control effect; nearly all actives have a fitted effect of over 60% in size
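Inhibition of Kinase-Glo luciferase light generation was assessed at 10 uM ATP in pH 7.2 imidazole buffer, with luminescence measured after eight minutes at ambient temperature.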
IMPase Li inh: IMPase inhibition in cells with lithium potentiation; 210,000 tested, 0.35% active; Potency, µM (doses to about 59.4 µM), inactives show at the top dose activity, negative = IMPase inhibition, most hits filed as inhibitors; CHO-M1 cells, IP1 TR-FRET (IP-One), carbachol + lithium; AID 1457;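 note: IP1 builds up when IMPase is blocked and the TR-FRET signal falls; potency is the fitted concentration of half-maximal effect; plate controls were basal vehicle for no effect and high inhibitor control for full effect; nearly all actives have a fitted effect of over 50% in size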
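Lithium-sensitised IP1 accumulation assay; M1-expressing CHO cells treated 30 min at 37C with compound. Competitive antibody detection by time-resolved FRET followed a 10 min room-temperature lysis step.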
CBFb RUNX1 block: inhibitors of human CBF-beta and RUNX1 interaction; AlphaScreen CBFb-His/RUNX1-biotin binding, biochemical; Potency, µM (series often up to 59.8 µM), inactives show at the top dose activity, negative = inhibition, hits mostly inhibitors; 230,000 tested, under 10 active; note: % of control where 0% means no effect
Target sequence (Q01196 whole entry, looked up): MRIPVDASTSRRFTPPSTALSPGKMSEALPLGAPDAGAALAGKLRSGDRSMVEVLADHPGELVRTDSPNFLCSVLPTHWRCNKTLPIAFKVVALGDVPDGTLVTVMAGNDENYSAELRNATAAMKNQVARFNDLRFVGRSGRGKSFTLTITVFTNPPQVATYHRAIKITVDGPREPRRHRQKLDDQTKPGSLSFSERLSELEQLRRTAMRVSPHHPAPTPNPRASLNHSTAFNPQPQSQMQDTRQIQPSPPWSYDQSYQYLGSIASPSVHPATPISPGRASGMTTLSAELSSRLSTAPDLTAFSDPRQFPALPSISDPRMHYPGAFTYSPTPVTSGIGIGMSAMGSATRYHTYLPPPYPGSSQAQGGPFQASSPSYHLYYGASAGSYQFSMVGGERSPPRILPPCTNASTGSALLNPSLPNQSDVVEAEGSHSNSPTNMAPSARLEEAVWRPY
Target sequence (Q13951 whole entry, looked up): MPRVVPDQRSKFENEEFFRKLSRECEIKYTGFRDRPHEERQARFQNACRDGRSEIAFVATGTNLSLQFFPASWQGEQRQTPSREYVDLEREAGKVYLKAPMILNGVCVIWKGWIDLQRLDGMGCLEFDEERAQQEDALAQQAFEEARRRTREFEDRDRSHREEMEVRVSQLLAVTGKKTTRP
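Inhibition was taken as any reduction in AlphaScreen signal from the CBF-beta–RUNX1 pair (His and biotin tags, 30 nM each), measured after compound (15 min) and bead (90 min) incubations at room temperature.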
L3MBTL1 block: inhibitors of human L3MBTL1. Q9Y468. AlphaScreen L3MBTL1–H3K9me1 peptide binding. Potency, µM (doses to about 57.1 µM), for the others: at the top dose activity, negative = inhibition, usual class: inhibitors. 230,000 tested, 0.66% active; note: potency is the fitted concentration of half-maximal effect; % is set by controls: 0 for no effect and ±100 for the full control effect; nearly all actives have a fitted effect of over 60% in size
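First, the protein-peptide complex forms for 30 min at room temperature (L3MBTL1 50 nM, biotinylated H3K9me1 peptide 75 nM). Next, compounds are pin-transferred and incubated 30 min. Finally, AlphaScreen beads are added and read after 30 min.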
Epigenetic derep: regulators of epigenetic silencing causing reporter derepression in mouse cells; murine LDR cells, GFP reporter derepression, 30 h; Potency, µM (doses to about 53.9 µM), inactives show at the top dose GFP activation, hits mostly activators; 280,000 tested, 0.2% active; AID 1865; note: potency is the fitted concentration of half-maximal effect; % of control where 0% means no effect; nearly all actives have a fitted effect of over 60% in size
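Readout is the number of GFP-expressing murine LDR cells, counted by cytometry following washing. Cells were treated with compound for 30 h at 37 C; the stably integrated CMV-GFP locus is normally silent.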
HttQ103 aggreg: inhibitors of mutant huntingtin aggregate formation in PC12 cells | AID 1688 | 220,000 tested, 1.1% active | PC12 HttQ103-GFP aggregates, Acumen cytometry, 40 h | Potency, µM (top dose mostly 46.1 µM), for the others: top-dose activity change, negative = inhibition, actives largely listed as inhibitors; note: potency is the fitted concentration of half-maximal effect; % is set by controls: 0 for no effect and ±100 for the full control effect; nearly all actives have a fitted effect of over 60% in size
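PC12/HTTQ103-GFP, ecdysone-inducible; teb 100 nM; cpd qHTS titration; GFP aggregates read on laser cytometer, Ex 488/Em 500-530 nm.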
An asterisk follows results filed as active; ? = inconclusive; nt = not tested or not shown; [ ] = another dose, or the depositor's remark. Calls come from the whole dose curve; as a rule, active = well fitted curve in the direction sought with a large enough effect; inconclusive = small, poorly fitted or top-dose-only effect, or another doubt; inactive = no such curve, though single readings can be large; an effect the other way counts as inactive or inconclusive. Some of the compounds tested, so the mix of outcomes need not match the whole.

Results follow in this order: KinaseGlo FLuc | IMPase Li inh | CBFb RUNX1 block | L3MBTL1 block | Epigenetic derep | HttQ103 aggreg
CCCC(C(=O)NC1CCCC1)N(CCCN1CCOCC1)C(=O)c1snc(C(N)=O)c1N (configuration not stated)
    -2.0% | 2.0%[38.3 µM] | 0.3% | 5.1% | 2.0% | 3.9%[9.22 µM]
O=C(Nc1ccccc1C(=O)N1CCCCCC1)c1ccc(Cl)cc1
    2.4% | -1.3% | 2.5% | nt | -1.1% | -2.4%
COc1ccc(CNC(=O)C2CC(c3ccc(F)cc3)=NO2)cc1 (configuration not stated)
    -4.8% | -4.8%[38.3 µM] | 4.3% | -4.0% | 0.0% | -9.1%
COc1ccc(Nc2ncnc3c2cnn3Cc2ccccc2)cc1OC
    nt | nt | -6.0% | -4.3% | -7.3% | ?
CCOC(=O)Cn1c(C)cc(=O)c2cccc(C)c21
    14.2% | -9.3%[38.3 µM] | -1.5% | 8.6% | 4.0% | 5.1%
COC(=O)C1=C(C)NC(=O)NC1c1cc(Cl)ccc1OC (configuration not stated)
    -2.4% | 3.1%[38.3 µM] | 7.5% | 7.1% | 0.0% | -1.9%
CCCCN(CCCC)C(=O)CSc1nnc2n(C)c(=O)c3c4c(sc3n12)CCCC4
    -1.7% | 24.3% | -1.8% | -12.2% | -0.9% | -6.0%
Cc1c(NC(=O)c2coc(=O)c(Br)c2)c(=O)n(-c2ccccc2)n1C
    -0.8% | -15.2%[38.3 µM] | -2.6% | nt | ? | ?
CCC(C)NC(=O)CSc1nc2c(sc(=S)n2Cc2ccco2)c(=O)n1-c1ccccc1 (configuration not stated)
    2.4% | 15.1%[38.3 µM] | -1.2% | nt | 4.5% | 3.9%[9.22 µM]
Cc1ccc(NC(=O)CS(=O)CC(=O)NC2CCN(Cc3ccccc3)CC2)c(C)c1 (configuration not stated)
    -1.0% | 2.9%[38.3 µM] | 3.2% | 4.2% | -0.3% | 1.6%
COc1ccc(Cl)cc1NC(=O)CNc1ccccc1CN(C)C1CCCCC1
    3.0% | 22.0% | 5.6% | -15.8% | 1.5% | -15.0%
COc1ccc(-c2c3c(=O)n(C)c(=O)n(C)c3cn2NC(C)=O)cc1
    1.2% | 10.8%[38.3 µM] | -0.2% | 5.9% | 0.3% | 2.9%
Cc1ccc(N(C(=O)Cc2c[nH]c3ccccc23)C(C(=O)NC2CCCCC2)c2ccco2)cc1 (configuration not stated)
    3.6% | 24.1%[38.3 µM] | 2.9% | -10.5% | -0.7% | ?
COc1c(C)cc(Br)cc1C(=O)Nc1ccccc1N1CCN(C(=O)c2ccccc2)CC1
    1.4% | 10.6% | 0.4% | 0.4% | 1.1% | ?
COc1ccc(CN(CCC(c2ccc(F)cc2)C2CCOC(C)(C)C2)C(=O)c2ccco2)cc1 (configuration not stated)
    -2.5% | 22.4% | 1.5% | -7.0% | 1.1% | ?
CC(=O)c1ccc(NC(=O)C2CC(c3ccc(F)cc3)=NO2)cc1 (configuration not stated)
    -4.0% | 16.6%[38.3 µM] | 5.0% | 2.2% | -1.2% | -4.7%
COc1cccc(NCc2cc3c(C(C)(C)C)nn(-c4ccccc4)c3[nH]c2=O)c1
    -5.4% | 27.0%[38.3 µM] | -28.6% | nt | -0.7% | 14.7%
O=C(CSc1nc2ccccc2[nH]1)Nc1cc(C(F)(F)F)ccc1N1CCOCC1
    -5.2% | 4.0%[38.3 µM] | 2.4% | 2.9% | -1.1% | -15.3%
COCCn1nnnc1C(c1cc2c(C)cc(C)cc2[nH]c1=O)N1CCCCCC1 (configuration not stated)
    -4.6% | 14.4%[38.3 µM] | 3.2% | nt | 0.0% | 25.4%
Cc1cccc(NC(=O)c2ccccc2OCC(=O)c2ccccc2)c1
    -2.7% | 14.7%[38.3 µM] | 17.8% | -1.4% | -0.7% | 1.3%
CCOc1cc(NS(=O)(=O)c2ccc(Cl)cc2)c(OCC)cc1NC(=O)CC(C)C
    0.1% | 25.0%[38.3 µM] | -2.3% | nt | 0.0% | -4.3%
Cc1ccc(N2C(N)=NC(N)=NC23CCCC3)c(C)c1
    -6.6% | 3.5%[38.3 µM] | 2.5% | -1.4% | 0.3% | -1.2%
CCOC(=O)N1CCN(Cc2cc(=O)oc3ccc(Cl)cc23)CC1
    4.4% | 13.6%[38.3 µM] | -0.1% | -2.8% | -0.9% | -0.8%
Cc1ccc(Cl)cc1N1CCN(Cc2nc3c(c(=O)[nH]c(=O)n3C)n2Cc2ccccc2F)CC1
    2.9% | 33.5%[activator][38.3 µM] | 6.0% | -8.9% | 0.0% | ?
O=C(NCc1ccc(F)cc1)c1cnc2sccn2c1=O
    0.2% | 3.0%[38.3 µM] | -3.9% | -14.6% | 1.3% | 12.0%
COc1nc(N2CCOCC2)nc(-n2cccc2)n1
    0.9% | 5.6%[38.3 µM] | -7.7% | -7.3% | -4.1% | -25.9%
CC(=O)Nc1ccc(N(C(=O)c2cnccn2)C(C(=O)NC2CCCCC2)c2ccc(O)cc2)cc1 (configuration not stated)
    0.9% | 33.5%[38.3 µM] | 4.3% | nt | -1.0% | -11.1%
COc1ccc(-c2cc(C(F)(F)F)nc(SCCC(=O)N3CCCC3)n2)cc1
    -2.1% | 0.7% | 9.1% | -3.3% | -11.4% | 5.4%
CC1(C)Cc2nc3sc4c(SCC(=O)NCc5ccccc5)ncnc4c3cc2CO1
    -4.2% | ? | -0.8% | nt | -4.6% | 34.2%
CCCCOc1ccc(C(O)C(CN2CCOCC2)c2ccccc2)cc1 (configuration not stated)
    nt | nt | 3.9% | 2.5% | 3.0% | -18.9%[9.22 µM]
CCCCn1c(N)c(-c2nc3ccccc3s2)c2c([N+](=O)[O-])nn(CC)c(=O)c21
    -5.0% | 17.5%[38.3 µM] | -2.3% | nt | -1.0% | 5.4%
CCN(CC)C(=O)CSc1nc2c(sc(=S)n2Cc2ccco2)c(=O)n1-c1ccccc1
    -1.8% | -9.8%[38.3 µM] | -22.9% | -10.8% | -0.8% | -1.3%
CCOC(=O)c1sc2nc(CC(=O)OC)nc(NCc3ccc(Cl)cc3)c2c1C
    6.6% | 45.6%[activator][38.3 µM] | -2.0% | nt | 0.8% | 1.3%[9.22 µM]
Cc1ccnc(NC(=O)c2cc3c(=O)oc4ccc(C)cc4c3s2)c1
    nt | nt | 6.6% | nt | 1.0% | 6.8%[9.22 µM]
CC1CCN(C(C(=O)Nc2ccc(C(C)C)cc2)c2ccc3c(c2)OCO3)CC1 (configuration not stated)
    1.2% | 14.2%[38.3 µM] | -0.9% | 25.8% | 2.4% | 20µM*
COc1ccc(-c2c3c(nc4sc(C(=O)Nc5cc(C)on5)c(N)c24)CCC3)cc1
    1.7% | -22.8%[38.3 µM] | 15.7% | nt | 0.0% | -14.8%
COc1cc(/C=C(\C#N)c2nc3ccccc3[nH]2)cc(Br)c1OCc1ccccc1
    -0.3% | 7.9% | 1.2% | 16.7% | ? | -5.7%
Cc1cccc(-c2cc3nc4c(c(NCc5ccco5)n3n2)CCCC4)c1
    -2.6% | 18.9%[38.3 µM] | -5.1% | -7.9% | -1.0% | -29.4%
Cc1cccc(-c2cc3nc(-c4ccccc4)cc(N4CCC5(CC4)OCCO5)n3n2)c1
    1.1% | 1.0% | 6.1% | 56.3%[activator] | 0.0% | -17.0%
c1ccc(-c2nc(NCc3cccnc3)c3oc4ccccc4c3n2)cc1
    1.2% | 27.0%[38.3 µM] | -2.7% | 6.7% | 0.0% | -29.2%
CCOC(=O)NCC(C)(C)CNC(=O)OCC
    1.0% | -7.9%[38.3 µM] | ? | 6.4% | -1.1% | -17.1%
COc1ccc(C(c2nnnn2Cc2cccs2)N2CCN(c3ccccc3F)CC2)cc1OC (configuration not stated)
    -1.4% | 10.8%[38.3 µM] | -0.1% | 29.6% | -3.4% | -5.8%
CC[C@H](C)[C@H]1O[C@]2(CC[C@@H]1C)C[C@@H]1C[C@@H](C/C=C(\C)[C@H](O[C@@H]3C[C@H](OC)[C@H](O[C@@H]4C[C@H](OC)[C@@H](O)[C@H](C)O4)[C@H](C)O3)[C@@H](C)/C=C/C=C3\CO[C@@H]4[C@H](O)C(C)=C[C@@H](C(=O)O1)[C@]34O)O2
    nt | 17.0% | 5.9% | nt | 2.1% | 16.6%
O=C(NC12CC3CC(CC(C3)C1)C2)c1cc2nc(-c3ccco3)cc(C(F)(F)F)n2n1
    -0.9% | -3.2%[38.3 µM] | -0.9% | nt | -1.1% | ?
Cc1ccc(N2CC3=C(C2=O)C(c2ccccc2)NC(=O)N3C)cc1 (configuration not stated)
    -0.5% | 4.9%[38.3 µM] | 2.4% | 2.4% | -2.2% | 5.4%
CCCc1cc(NCc2ccccn2)n2c(nc3ccccc32)c1C#N
    -8.4% | 10.3% | 18.8% | 16.8% | ? | -0.6%
Fc1ccc2[nH]c3c(N4CCN(Cc5ccc6c(c5)OCO6)CC4)ncnc3c2c1
    -3.6% | 16.9%[38.3 µM] | -10.6% | -5.1% | -0.9% | 3.55µM*
Cc1cc(C(=O)Nc2sc3c(c2C#N)CCC(C)C3)cs1 (configuration not stated)
    4.9% | -6.1%[38.3 µM] | 7.1% | nt | 0.0% | -12.1%
CCN(CC)c1ccc(C(=O)OCC(=O)c2ccco2)cc1
    -5.3% | 2.1%[38.3 µM] | -0.2% | -10.6% | 1.0% | 18.6%
CC(Nc1nc(N2CCCCC2)nc2ccccc12)c1ccccc1 (configuration not stated)
    -4.9% | 16.0%[38.3 µM] | -4.0% | nt | -1.7% | -20.6%
CCOC(=O)c1c(NC(=O)C(C)N2CCN(S(=O)(=O)c3cccs3)CC2)sc2c1CCC(C)C2 (configuration not stated)
    -0.3% | -10.1% | 3.8% | 5.1% | 0.0% | 11.9%
Cc1ccc(S(=O)(=O)N2CCC(C(=O)N[C@H](C(=O)NCC3CCCO3)C(C)C)CC2)cc1 (some centres not stated)
    -4.9% | -11.2%[38.3 µM] | 4.3% | 33.8%[activator] | -3.5% | 8.2%
CCOC(=O)/C(C#N)=C1/C=C(C)NC(c2ccccc2O)=N1
    5.9% | -10.1%[38.3 µM] | 3.5% | -4.9% | -4.8% | 11.2µM*
COc1ccc(NC(=O)CN2CCC(C)CC2)cc1
    1.8% | 18.5%[38.3 µM] | 7.8% | 24.4%[11.4 µM] | -1.0% | 8.1%
Cc1ccc(-c2nn(-c3ccccc3)cc2C(=O)N2CCN(c3ccccn3)CC2)cc1
    -0.7% | 5.6% | -17.3% | nt | 1.3% | -21.5%
COc1cc(NC(=O)c2cc3ccccc3o2)c(OC)cc1Br
    -0.4% | ? | -2.2% | 4.6% | -1.2% | 8.1%
Cc1cc(C)n(-c2nc(Nc3ccccc3C)nc(-n3nc(C)cc3C)n2)n1
    -4.6% | 1.2%[38.3 µM] | -16.2% | -10.3% | -0.1% | -24.0%
COc1ccc(C(C#N)Nc2ccccc2C)cc1 (configuration not stated)
    0.0% | -5.3%[38.3 µM] | -9.3% | -10.1% | -0.9% | -5.4%
Cc1ccc(-c2nnn(CC(=O)Nc3ccc(S(=O)(=O)N4CCC(C)CC4)cc3)n2)cc1
    -1.4% | -0.8%[38.3 µM] | -4.1% | 34.4%[activator] | 4.8% | 11.7%
